# From PubChem
# Beta apoptosis – inhibitors of cytokine-induced beta cell apoptosis, primary screen, luminescence; actives 0.8% (n = 300,000); AID 435005, 2010; INS-1E cytokine-induced death, ATP luminescence, 48 h; percent of positive-control rescue, neutral wells zero; protection from apoptosis, % (concentration not given with the values);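 active means all replicates at 75% or more, or half of them and the mean; inconclusive means half reach 75% but not the mean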;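 further: 0% = cytokine-treated negative control wells and 100% = positive control rescue; higher means more ATP so stronger rescue from cytokine killing; wells of about 40 µL received 100 nL stock; the first replicate is given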
# RanGTP-Impb inh – inhibitors of RanGTP-importin-beta interaction, primary screen, biochemical, FRET, CFP-Ran, YFP-importin-beta, homogeneous | cell-free CFP-Ran/YFP-importin-beta FRET ratio | inhibition, % (test concentration not listed) | AID 2216, 2009 | Ran GTPase (GTP-bound) - importin-beta complex | actives 1.1% (n = 300,000);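 active means most replicates above 15%; inconclusive means exactly half above 15%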;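 further: 0% = DMSO wells and 100% = Ran loaded with GDP instead of GTP; wells of about 40 µL received 100 nL stock; the first replicate is given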
# Bfl-1 A1 inh – caspase 3/7 activation in MEF A1-2A-BIM cells, primary screen, A1 inhibitor project, cell-based, luminescence, HTS; Caspase-Glo 3/7 luminescence, 3 h; percent of clofoctol response, vehicle zero; actives 0.066% (n = 330,000); caspase activation, % (no concentration beside the values);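 active means over half of replicate activation scores above 10%, or exactly half above 10 with the replicate mean above 10; inconclusive means replicate mean below 10 yet half the replicates above 10; inactive means over half of replicates below 10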;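 further: wells of about 30 µL received 50 nL stock; many hits fall short of the cut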
# AF4-AF9 inh – inhibitors of AF4 peptide binding to AF9, primary screen, biochemical, AlphaScreen, biotin-AF4 peptide, FLAG-AF9, single point | inhibition, % at 10 µM | actives 0.47% (n = 350,000);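 active means every replicate reaching a set inhibition limit, whatever the replicate mean, cut at about 25% in these data; inconclusive means mean inhibition reaches that limit but some replicates miss it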;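 further: 0% = plate neutral control median and 100% = total signal loss; the record names both 10 and 1 µM as test concentration; the first replicate is given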
# Target sequence (P42568 whole entry, looked up): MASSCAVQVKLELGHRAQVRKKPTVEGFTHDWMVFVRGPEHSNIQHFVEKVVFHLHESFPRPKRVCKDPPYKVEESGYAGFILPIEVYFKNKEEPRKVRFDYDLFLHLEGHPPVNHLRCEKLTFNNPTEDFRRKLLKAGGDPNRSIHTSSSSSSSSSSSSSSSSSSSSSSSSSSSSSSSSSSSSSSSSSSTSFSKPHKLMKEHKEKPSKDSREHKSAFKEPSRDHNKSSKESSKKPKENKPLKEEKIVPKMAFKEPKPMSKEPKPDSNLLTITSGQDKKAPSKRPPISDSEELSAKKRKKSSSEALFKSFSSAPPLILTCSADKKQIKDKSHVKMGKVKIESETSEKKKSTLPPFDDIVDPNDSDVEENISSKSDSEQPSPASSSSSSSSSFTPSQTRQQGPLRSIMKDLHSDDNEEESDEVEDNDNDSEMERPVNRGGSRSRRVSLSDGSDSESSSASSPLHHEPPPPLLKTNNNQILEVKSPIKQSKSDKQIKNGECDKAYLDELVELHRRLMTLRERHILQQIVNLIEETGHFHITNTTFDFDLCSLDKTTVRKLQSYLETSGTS
# T cruzi inh – inhibitors of intracellular T. cruzi growth, primary screen, luminescence, NIH3T3 host cells; T. cruzi beta-gal in NIH3T3, 90 h; actives 1.4% (n = 300,000); inhibition, % (test concentration not listed); AID 1885, 2009;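 active means mean inhibition across valid replicates above about 55%, limit read from the data; inconclusive means mean below that limit but half or more replicates reach it; inactive means mean below it, under half of replicates reach it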;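 further: signal also drops with host cell toxicity which is not excluded here; 0% = plate median of DMSO wells and 100% = zero luminescence signal; higher percent means less beta-gal luminescence so fewer parasites; stock transfer was 50 nL into about 50 µL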
# Calb FLC – C. albicans growth inhibition with fluconazole, primary screen, CaCi-2 strain, Alamar Blue fluorescence | C. albicans CaCi-2 (fluconazole-resistant clinical isolate) + fluconazole, 48 h | growth inhibition, % (test concentration not listed) | actives 0.57% (n = 300,000) | AID 1979, 2009;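 active means most replicates above 75%; inconclusive means exactly half above 75%; inactive means most below 75%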;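 further: all wells also contain fluconazole at 8 µg/ml as a sub-toxic cotreatment; 0% = median of DMSO wells and 100% = median of geldanamycin control wells; wells of about 8 µL received 7.5 nL stock; the first replicate is given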
# rRNA inh HTS – reduced GFP signal of wild-type E. coli, primary screen, bacterial rRNA inhibitor project, GFP/RFP fluorescence, OD600, single point; actives 1.6% (n = 350,000); GFP signal change (wild-type ribosome), % (concentration not given with the values); AID 720706, 2013; E. coli WT GFP vs humanized-ribosome RFP mutants, 24 h; hits give low values; DMSO median 0, no signal -100;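 active means significant combined selectivity score with lowered wild-type GFP, culture density cut under 30%, mutant RFP and density less affected; inactive means any of these conditions unmet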; further: one replicate is shown; some compounds called inactive have numbers as strong as hits
# Vif A3G – inhibitors of Vif binding to APOBEC3G peptide, primary screen, biochemical, TR-FRET, GST-Vif 1-94, biotin-A3G peptide, dose response retest (AID 1117319); Virion infectivity factor (Human immunodeficiency virus type 1 group M subtype B (isolate …; TR-FRET GST-Vif / biotin-A3G peptide binding; higher % means a stronger effect; test concentration not given here; strong numbers were not always called active; inhibition, %, or IC50 in µM where a hit was titrated; actives 0.57% (n = 260,000);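 active means above the screen mean plus three standard deviations and confirmed in dose response; inconclusive means results disagree or hit not tested in dose response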;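 further: Vif residues 1-94 fused to GST binding biotinylated APOBEC3G peptide 110-148; 0% = full assay without inhibitor and 100% = GST in place of GST-Vif; retest series ran down from 100 µM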
# rRNA inh HTS OD600 – recorded beside rRNA inh HTS, whose call it bears; OD600 change, %; measured here: OD600 growth;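 optical density of the mix in the first replicate; 0 = DMSO median and -100 = no signal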
# rRNA inh HTS RFP – also measured in rRNA inh HTS; calls as there; RFP signal change, %; measured here: RFP humanized mutant strains;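 first replicate; 0 = DMSO median and -100 = no signal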
# The depositor's hits bear a star; u = inconclusive; x = no result given. An excerpt, so the mix of outcomes need not match the whole.
SMILES,Beta apoptosis,RanGTP-Impb inh,Bfl-1 A1 inh,AF4-AF9 inh,T cruzi inh,Calb FLC,rRNA inh HTS,rRNA inh HTS OD600,rRNA inh HTS RFP,Vif A3G
CC(=O)c1c(C)[nH]c(C(=O)N2CCCC(C)C2)c1C (centres undefined),-13,-2.9,1.2,-3.8,-4,0,1,-1,-13,4%
O=C(Nc1nnc(C2CC2)s1)c1cc(S(=O)(=O)N2CCN(c3ccccc3)CC2)ccc1Cl,x,-1.1,0.3,x,12,40,x,x,x,2%
Cc1ccc(C)c(Cn2nc(-c3ccccc3)ccc2=O)c1,-16,2.6,0.4,4.6,-7,5,-31,-48,-5.8,x
COc1ccc(C(=O)N(CC2CCCO2)C(C(=O)NC2CCCC2)c2ccc(Cl)cc2)cc1OC (centres undefined),-2,2.1,0.4,x,1,-4,x,x,x,4%
COc1cccc(-c2sc3ccc(OC)cc3c2-c2ccc(OCCN(C)C)cc2)c1,3,x,2.4,11,x,x,-51,-77,-23,x
O=C(O)c1ccc(F)c(S(=O)(=O)Nc2ccccc2Cl)c1,-1,-1.0,-0.9,1.3,-6,-6,0,3,19,-2%
Cc1cc(OCC(=O)NCc2ccncc2)c2c(C)cc(=O)oc2c1,-1,1.9,0.1,1.1,-10,3,8,2,1.7,x
CCCCCC(=O)Nc1ccc2ccccc2c1,-4,-0.2,0.2,x,-2,23,x,x,x,x
Cc1c(C(=O)N(Cc2ccccc2)Cc2cccnc2)cnn1-c1ccc(F)cc1,-3,-0.1,1.0,x,x,5,-21,-17,7.2,3%
CCOc1ncccc1C(=O)Nc1cccc(-c2nnc3n2CCCCC3)c1,2,-3.3,-0.3,-2.0,5,9,-4,3,4.0,-2%
CCCCC(=O)Nc1ccc(C(=O)Nc2cc(C(F)(F)F)ccc2Cl)cc1,21,2.3,1.2,x,17,u,x,x,x,-5%
CCc1ccc(OCc2nnc(NC(=O)c3cccs3)s2)cc1,-2,2.7,0.5,x,-54,-2,x,x,x,4%
COc1cc(Cl)ccc1NC(=S)N(CCN1CCOCC1)C1CCN(C(C)=O)CC1,3,u,0.1,-3.9,-2,4,5,3,8.0,2%
CCc1nn(C(C)C(=O)NCc2cccc(Cl)c2)c(=O)c2cc3occc3n12 (centres undefined),-4,4.0,2.7,-7.6,-4,-3,3,6,2.2,-9%
C/C(=N\NC(=O)Cc1cccc2ccccc12)c1ccncc1,2,0.3,0.4,x,-10,-7,x,x,x,x
COc1ccc2sc(SCCCS(=O)(=O)O)[n+](CCCS(=O)(=O)[O-])c2c1,-6,1.4,0.1,3.9,12,1,8,13,-3.6,x
O=C1SC(SC(=Nc2ccccc2)Nc2ccccc2)C(=O)N1c1ccccc1 (centres undefined),-8,-2.3,-0.3,0.7,-4,4,-7,13,0.1,-6%
Cc1ccc(C(=O)/C=C/Nc2ccc3c(c2)OCO3)cc1,x,1.2,0.6,x,2,0,x,x,x,26%
CCCc1nnc(SCC(=O)Nc2nc(C)cs2)n1CCOC,-2,3.5,0.6,0.2,-11,-12,11,7,0.9,x
Nc1cc(=O)[nH]c(=O)n1CCc1ccccc1,-7,5.8,0.8,-2.6,-9,3,-1,3,1.3,x
Cc1nc2ccccc2n1CC(O)COc1ccc(Br)cc1 (centres undefined),19,-3.8,0.8,0.9,16,17,-28,-42,-1.3,-3%
Cc1cc(C(=O)OCC(=O)Nc2cc(S(=O)(=O)N3CCOCC3)ccc2Cl)c(C)o1,-1,6.5,-0.8,x,6,0,x,x,x,-7%
Fc1cccc(Cl)c1CNCCCSc1ncccn1,-1,3.5,-0.5,2.6,15,-41,8,16,5.8,x
CC(C)CN(CCCNC(=O)CN1C(=O)COc2ccc(S(=O)(=O)N3CCC(C)CC3)cc21)CC(C)C,-4,1.1,-1.9,0.2,11,-1,1,1,-15,x
COc1ccc(Nc2nnc(-c3ccc(C)cc3)c3ccccc23)cc1C(=O)N1CCCCC1,12,1.3,-1.0,5.5,-10,41,-21,-20,2.4,x
CCCNC(=O)c1noc2c1CCc1ccccc1-2,2,5.5,-1.8,1.0,-5,-6,-21,-18,-3.9,-2%
CN(C)C(=O)COC(=O)c1ccccc1Nc1ccc(SC(F)F)cc1,-2,14,-2.1,-0.5,-2,0,-29,-36,-4.0,x
O=C(C[n+]1cc(Br)cc(Br)c1)c1ccc(Cl)cc1,2,-0.5,1.2,0.0,-11,0,18,14,1.2,-16%
Cc1ccc(OCCN2C(=O)OC(C)(C)C2(C)O)cc1 (centres undefined),2,1.3,0.1,x,u,-19,x,x,x,-2%
Cc1onc(-c2ccccc2)c1C(=O)N/N=C(\N)COc1ccc(Cl)cc1,11,4.4,-0.1,x,-8,86*,x,x,x,5%

# Profiles, looked up by structure. Order of values: Beta apoptosis	RanGTP-Impb inh	Bfl-1 A1 inh	AF4-AF9 inh	T cruzi inh	Calb FLC	rRNA inh HTS	rRNA inh HTS OD600	rRNA inh HTS RFP	Vif A3G
# Profile of `CCc1ccc(OCc2nnc(NC(=O)c3cccs3)s2)cc1` : -2	2.7	0.5	x	-54	-2	x	x	x	4%
# Profile of `O=C(Nc1nnc(C2CC2)s1)c1cc(S(=O)(=O)N2CCN(c3ccccc3)CC2)ccc1Cl` : x	-1.1	0.3	x	12	40	x	x	x	2%

# The list continues.
SMILES,Beta apoptosis,RanGTP-Impb inh,Bfl-1 A1 inh,AF4-AF9 inh,T cruzi inh,Calb FLC,rRNA inh HTS,rRNA inh HTS OD600,rRNA inh HTS RFP,Vif A3G
COc1ccc(NC(=O)CCN=C2NS(=O)(=O)c3ccccc32)cc1S(=O)(=O)N(C)C,-1,x,-0.3,2.9,x,x,6,14,0.2,2%
CCOc1ncccc1C(=O)OCC(=O)c1ccc(Cl)s1,-6,-3.9,-1.5,x,0,2,x,x,x,-6%
CC(=O)NC1=NN(C(C)=O)C(c2ccccn2)S1 (centres undefined),6,0.6,0.1,-1.2,5,13,24,14,1.4,22%
CCC(C(=O)NCc1ccccc1OC)c1ccccc1 (centres undefined),2,2.6,0.6,-1.9,8,-5,x,x,x,-2%
N#Cc1c(/N=C/c2cc3ccccc3s2)sc2c1CCC2,0,-9.2,-0.3,x,-14,-20,x,x,x,23%
O=C(CNCCC1=CCCCC1)Nc1ccccc1N1CCCCC1,-4,1.2,0.8,x,15,-14,x,x,x,u
COc1ccc(C(=O)NNC(=O)C2(C)CC2(Br)Br)cc1 (centres undefined),-5,-0.4,-0.4,-7.8,-2,2,3,-2,0.5,3%
Cc1ccc(C(=O)N2CCN(c3ccc(NC(=O)CSc4ccc(Cl)cc4)cc3)CC2)cc1,2,1.8,-0.5,x,9,-4,x,x,x,0%
CCCn1c(SCCc2ccccc2)nc2c1c(=O)[nH]c(=O)n2C,1,-1.6,0.2,x,7,4,x,x,x,7%
COc1ccc(/C=N/NC(=S)NCCc2ccccc2)cc1,0,-3.4,u,0.1,-14,3,-22*,-11*,2.0*,0%
CC1(C)C(=O)Nc2ccccc2N1C(=O)COC(=O)c1cccnc1,4,x,1.0,-9.7,x,x,-1,3,-2.5,x
COc1ccc(/C=N/NC(=O)CNC(=O)c2ccc(S(=O)(=O)N3CCCC3)cc2)c(OC)c1,2,-0.9,1.0,2.6,-14,14,0,11,-2.6,7%
COc1cccc(CNc2ncc(C(=O)Nc3cc(OC)c(OC)c(OC)c3)c(C)n2)c1,-2,1.9,-0.3,1.4,-2,3,1,-3,2.1,0%
Cc1cc(C)n(C(=O)c2ccc(S(=O)(=O)N3CCCC3)cc2)n1,2,-1.5,0.3,x,-17,-3,x,x,x,-3%
COc1nnc(-c2ccc(N3CCOCC3)c(NC(=O)C3CCCCC3)c2)c2ccccc12,2,-0.5,-0.4,x,24,-3,x,x,x,u
COc1ccc(/C=C(\NC(=O)c2ccc(C)cc2)C(=O)Nc2ccc(C(=O)O)cc2)cc1,-3,2.6,0.4,-2.4,-6,2,-10,-5,2.1,4%
CCCC(C(=O)Nc1ccc2c(C)cc(=O)oc2c1)c1ccccc1 (centres undefined),23,0.7,0.0,-1.3,10,9,5,17,3.2,x
Cc1ccccc1C1CC(c2cccs2)=NN1S(C)(=O)=O (centres undefined),-2,3.4,-0.2,0.5,-26,-22,5,5,2.3,-6%
COC(=O)c1cccnc1-n1c(=O)c2cccnc2n(Cc2cccc([N+](=O)[O-])c2)c1=O,0,0.5,-0.2,-46,2,-2,-1,-5,1.7,-11%
Cc1cc(C)cc(NC(=O)COc2coc(CN3CCc4ccccc4C3)cc2=O)c1,x,1.3,0.0,-4.1,10,-3,6,7,2.7,-4%
CSc1nc(Oc2cccc(C(F)(F)F)c2)cc(C(F)(F)F)n1,3,-3.7,0.9,x,9,0,x,x,x,1%
CCC1(c2ccccc2)NC(=O)N(Cc2cccc([N+](=O)[O-])c2)C1=O (centres undefined),-1,0.2,-0.3,4.4,-6,-14,1,-4,6.3,4%
COc1ccc(C(=O)NCc2ccc(-c3nc4ccccc4s3)cc2)cc1OC,6,-2.0,-1.4,x,28,-6,x,x,x,-2%
CCOC(=O)C1=C(C)N=C2c3ccccc3C(=O)C2C1c1ccccc1 (centres undefined),0,-1.0,-0.6,x,0,-6,x,x,x,-3%
CCOc1ccccc1NC(=O)CCc1c(C)nn(-c2ccc(N3CCCCC3)nn2)c1C,6,4.9,-0.3,u,8,-4,5,3,-2.6,-7%
CCCOC(=O)CCCCC1SCC(NC(=O)OC)C1NC(=O)OC (centres undefined),-1,2.3,0.6,-0.6,-9,-7,5,5,6.7,3%
N#Cc1ccccc1OCC(=O)NCCNC(=O)COc1ccccc1C#N,-3,-4.0,0.0,0.3,-11,-9,2,7,0.4,-3%
CC(C)Oc1ccc(/C(O)=C2/C(=O)C(=O)N(CCCn3ccnc3)C2c2cccnc2)cc1 (centres undefined),-4,-1.7,0.5,-83,-20,-1,14,16,2.3,4%
Cc1ccc(C2=NN(C(=O)CCCC(=O)O)C(c3ccco3)C2)cc1 (centres undefined),-4,-2.6,0.1,-1.8,-38,19,11,5,2.4,-1%
c1ccc2c(c1)ncn2-c1ccc(-c2ccnc3ncnn23)cc1,-1,-1.2,-1.0,0.1,-8,0,10,18,2.1,-2%
Cc1cc(N2C(=O)CC(Cc3ccccc3)C2=O)no1 (centres undefined),0,2.0,0.8,x,-10,-10,x,x,x,11%
Cc1cc(=O)[nH]c(SCc2ccc(Cl)cc2Cl)n1,1,-4.0,0.3,0.6,9,4,-2,2,-1.4,1%
